Source: PubChem (several laboratories)
PrP UTR inh: inhibition of PrP 5' UTR reporter expression | cell-based PrP 5' UTR mRNA reporter, plate reader | inhibition, % (concentration not given with the values) | hit rate 0.35% among 340,000;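 active = every replicate at 50% or more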;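 also: 0 = median of the neutral control wells; tested in H4 reporter cells; numbers are from one replicate; inactives centre near -14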
BJeLR viability: MLPCN primary cell-based screen for lethality selective to Ras in HRASV12 cells; hit rate 0.17% among 300,000; inhibition, % (test concentration not listed); BJeLR (HRASV12) viability, CellTiter-Glo ATP luminescence, 48 h; reference of the scale not given here;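 active = replicate mean above 50%; inconclusive = above 50% but judged a plate artefact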;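 also: 50 nL library stock added to about 25 µL; numbers are from one replicate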
RN4220 kill: growth inhibition of S. aureus RN4220, primary screen, OD600; 16 h; inhibition, % (test concentration not listed); hit rate 0.33% among 330,000; AID 1259311, 2017;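 active = z-score of -3 or lower and OD600 up to 0.18 on both plates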;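 also: plate controls were untreated cells for no effect and reference antibiotic for full effect; stock transfer was 100 nL into about 80 µL; one replicate is shown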
Bead autofluor: compound fluorescence in toxin protease inhibitor counterscreen; compound autofluorescence counterscreen, microsphere flow cytometry; stronger effect = higher value; fluorescence intensity (test concentration not listed); hit rate 3.1% among 360,000; AID 624483;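 active = at least 3 SD above the mean of all compounds, about 16000 in these data; inconclusive = too few beads counted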;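 also: 100 nL of 1 mM stock went into each well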
ugtP null kill: growth inhibition of ugtP-null S. aureus, primary screen, RN4220 ugtP deletion, OD600; AID 1259309, 2017; hit rate 0.54% among 330,000; 16 h; some inactives read as strong as hits; growth inhibition, % (no concentration beside the values);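 active = z-score under -3 and OD600 up to 0.15 on both plates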;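 also: plate controls were untreated wells for no effect and antibiotic for full effect; wells of about 80 µL received 100 nL stock; the first replicate is given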
Mtb hypoxia rep: PubChem AID 1159583 | M. tuberculosis hypoxia-regulated fluorescent reporter, fluorescence | fluorescence inhibition, % (test concentration not listed) | hit rate 0.1% among 300,000;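 active = 35 to 45% if threefold the growth effect, above 45% if 1.5-fold the growth effect; inactive = the rest, general growth blockers included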;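 also: wells of about 50 µL received 100 nL stock; 0% = vehicle wells and 100% = reference inhibitor wells; whole bacteria with a GFP reporter of the hypoxia response; strong numbers were not always called active; many hits fall short of the cut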
Mtb hypoxia rep growth: also measured in Mtb hypoxia rep; calls as there; growth inhibition, %; measured here: M. tuberculosis growth (absorbance);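 0% = vehicle and 100% = reference antibiotic; read after six days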
The depositor's hits bear a star; ? = inconclusive; · = no result given.

structure	PrP UTR inh	BJeLR viability	RN4220 kill	Bead autofluor	ugtP null kill	Mtb hypoxia rep	Mtb hypoxia rep growth
Cc1cc(NC(=O)c2ccc(Cn3nc(C)c(Br)c3C)o2)no1	-30	7	0.9	5559	9	6	6
CCOc1ccccc1/C=C/c1nc2ccccc2[nH]c1=O	-8	6	·	3688	·	·	·
C=CCc1ccc2oc(C(=O)OCC)cc(=O)c2c1O	-18	1	5.4	5873	4	15	15
O=C(Cc1ccc(NC(=O)C2CCN(C(=O)c3ccccc3)CC2)cc1)Nc1cccc(C(=O)N2CCCC2)c1	-30	·	6.4	3216	7	-1	2
O=S(=O)(c1ccccc1F)N1CCN(Cc2nc3ccccc3[nH]2)CC1	-4	0	2.1	4163	1	1	8
O=C(O)c1ccc(/C=N/N2CCN(c3ccccc3)CC2)cc1	-36	1	·	3195	·	·	·
COc1ccc(-c2nonc2NC(=O)c2oc3ccc(F)cc3c2C)cc1OC	-9	9	-0.8	5732	-5	-3	-8
CCOC(=O)Nc1cc(OCC)c(NC(=O)C2CC2)cc1OCC	-25	3	2.2	10100	1	4	13

An excerpt of these results, with two lines to a compound:
The line under a structure holds: PrP UTR inh, BJeLR viability, RN4220 kill, Bead autofluor, ugtP null kill, Mtb hypoxia rep, Mtb hypoxia rep growth
- CCOc1ccccc1/C=C/c1nc2ccccc2[nH]c1=O
  -8, 6, ·, 3688, ·, ·, ·
- C=CCc1ccc2oc(C(=O)OCC)cc(=O)c2c1O
  -18, 1, 5.4, 5873, 4, 15, 15
- O=C(Cc1ccc(NC(=O)C2CCN(C(=O)c3ccccc3)CC2)cc1)Nc1cccc(C(=O)N2CCCC2)c1
  -30, ·, 6.4, 3216, 7, -1, 2
- O=S(=O)(c1ccccc1F)N1CCN(Cc2nc3ccccc3[nH]2)CC1
  -4, 0, 2.1, 4163, 1, 1, 8

The list goes on:
structure	PrP UTR inh	BJeLR viability	RN4220 kill	Bead autofluor	ugtP null kill	Mtb hypoxia rep	Mtb hypoxia rep growth
CCOc1ccc(Br)cc1S(=O)(=O)Nc1ccc(Cl)c(S(=O)(=O)N(CC)c2ccccc2)c1	-38	3	3.8	9931	9	15	-7
O=C(c1ccccc1)c1ccc(N2CCOCC2)c(F)c1	-60	-3	8.3	11483	3	7	-3
Cc1ccc(Nc2ccc(N3CCN(c4ccc([N+](=O)[O-])cc4)CC3)nn2)cc1	2	-11	3.9	4672	2	6	-7
COc1ccc(OC)c2c(N3CC(C)OC(C)C3)cc(C(F)(F)F)nc12 (configuration not stated)	8	3	6.0	6433	9	14	0
CN1CC2C3C(=O)N(Cc4ccccc4)C(=O)C3[C@](C)(C1=O)N2C(=O)c1ccc(C(C)(C)C)cc1 (some centres not stated)	·	·	8.5	·	3	15	1
Cc1cc(C(=O)N/N=C/c2cccnc2)c2ccccc2n1	-11	-5	·	6581	·	·	·
Cc1cc(NC(=O)COC(=O)C2CCCN2C(=O)c2cccs2)no1 (configuration not stated)	-12	-3	2.9	4095	2	5	8
O=C(NNC(=O)c1cccc(S(=O)(=O)N2CCN(c3ccccc3)CC2)c1)c1ccc(Cl)cc1	-8	8	-3.4	2453	-8	-4	-7
Fc1cccc(C2NC(=S)NC3=C2N2CCC3CC2)c1 (configuration not stated)	-27	22	-5.1	17015*	-4	-7	-7
CCCOc1ccccc1C(=O)NCCCC(=O)O	-19	0	0.2	4447	0	·	·
CC(C)C(NC(=O)C(C)N1C(=O)c2ccccc2C1=O)c1ccccc1 (configuration not stated)	·	8	2.3	3338	12	-1	-3
COc1cc(C(=O)Nc2ccc3nc(N4CCN(C)CC4)cc(C)c3c2)cc(OC)c1OC	1	-4	2.4	3000	7	2	-11
Cc1ccc(C(=O)NC2(C(Cl)Cl)N=C(c3ccccc3)N=C2N)cc1 (configuration not stated)	-7	1	-7.2	2102	7	-1	-5
CC1CN(Cc2ccco2)C(=S)NC1=O (configuration not stated)	-26	·	2.8	3650	6	22	13
Cc1cc(C)c2c(c1)/C(=c1/sc3n(c1=O)CN(c1ccccc1)CN=3)C(=O)N2	-95	8	·	4568	·	·	·
O=C(CCN1C(=O)/C(=C\c2ccccc2)SC1=S)NNC(=O)c1ccccc1O	-9	-11	32	3557	-1	0	10
Cc1ccccc1NS(=O)(=O)c1ccc(C(=O)N2CCCCCC2)cc1	-12	18	4.2	4299	-4	3	4
Nn1c(SCC(=O)N2CCCc3ccccc32)nncc1=O	-18	-2	7.5	4494	6	11	7
O=C(CSc1nnc(-c2ccco2)o1)c1ccccc1Cl	1	2	2.8	4505	-5	12	1
O=C(O)C1C2C=CC(O2)C1C(=O)NC1CCCc2ccccc21 (configuration not stated)	-10	-5	-0.7	3331	-4	8	9
CC(=NNC(=S)NCCc1ccccc1)c1ccc(Cl)cc1Cl	·	·	1.1	·	90*	12	6
N#CC12C(N)=NC3(OCCO3)C1(C#N)C1=C(CCC1)NC2c1ccccc1 (configuration not stated)	-8	-1	19	2585	10	-2	-1
CCSc1nnc2ccc(-c3ccco3)nn12	0	7	2.1	6126	-4	13	9
CCOc1ccc(N(CC(=O)NCCc2ccccc2)C(=O)c2csnn2)cc1	3	-1	1.5	3520	3	-3	-5
CCN(CC)CCNC(=S)Nc1ccc2nc(N3CCN(CC)CC3)cc(C)c2c1	-6	-1	0.7	3356	17	-3	7
C[n+]1ccn(CC(=O)c2cccs2)c1	-26	0	-1.1	4288	5	6	1
COC(=O)/C=C/c1cc(F)ccc1S(=O)(=O)NC(C)(C)C	-17	3	·	3843	·	·	·
CCSc1ccc(C2C3C(=O)N(CC)C(=O)C3[C@]3(C(=O)OC)CCCN23)cc1 (some centres not stated)	·	·	3.5	·	-10	9	9
CN(Cc1cc2ccccc2[nH]c1=O)S(C)(=O)=O	-11	-1	1.3	?	-3	-10	-15
NC(=O)C1(C(=O)O)OC1(c1ccc(Cl)cc1)c1ccccc1Cl (configuration not stated)	-13	·	2.2	2837	1	16	7
Cc1ccc(-c2csc3nc(SCC(=O)N(C)C)n(Cc4ccccc4)c(=O)c23)cc1	0	-20	5.7	1997	4	9	9
CCOC(=O)C1(Cc2cccc(OC)c2)CCN(Cc2cccc3cnccc23)CC1	-11	-8	6.7	2494	9	2	6
CCN1CCN(S(=O)(=O)c2cc(C)c(OC)cc2C)CC1	-43	-19	4.6	9962	3	5	6
COC(=O)Nc1nnc(-c2ccccc2OC)s1	-89	1	4.6	4522	-4	15	11
C=CCc1c(Cl)nc(C)nc1NCc1ccccc1	-1	0	3.1	3687	10	-2	7
CC(/C=C/c1ccco1)=N/NC(=O)OC(C)(C)C	-17	6	·	2337	·	·	·
Cc1ccc(F)cc1NC(=O)CSc1n[nH]c(N)n1	-17	·	5.2	5208	4	3	4
N#Cc1ccc(C23CC4(C2)[C@H](CN(Cc2ccc(-c5ccccc5)cc2)[C@@H]4c2ccccc2)C3c2ccccc2)cc1 (some centres not stated)	-13	-1	·	3231	·	·	·
CC(=O)c1cccc(OCC(O)CNCC2CCCCC2)c1 (configuration not stated)	-13	-3	3.8	4299	5	16	6
Cc1cccc(C(=O)OCC(=O)Nc2c(C)n(C)n(-c3ccccc3)c2=O)c1O	-15	·	-0.8	3691	-1	21	8
CCOCCCNC(=S)N1CCN(c2nc(-c3ccc(F)cc3)cs2)CC1	-9	3	-7.0	3630	7	1	2
COc1ccc(S(=O)(=O)Nc2ccccc2-c2nnn(CC(=O)Nc3ccccc3OC)n2)cc1	7	8	5.7	2214	-12	4	-3
O=S(=O)(Nc1cccc(S(=O)(=O)N2CCCC2)c1)c1ccc(Cl)s1	3	·	12	2932	-6	1	-3
CC(C)C(OC(=O)c1cccs1)C(=O)NCCc1ccccc1 (configuration not stated)	-10	-6	0.6	3826	6	-5	0
COc1cccc(NC(=O)NC2CC(=O)N(c3ccc4c(c3)OCCO4)C2)c1 (configuration not stated)	-11	9	-0.9	4886	7	3	2
CC(C)c1ccc(-n2cccc2/C=C2/C(=N)N3C=CSC3=NC2=O)cc1	-14	2	-13	11106	18	2	-6
Cc1ccc(-c2noc(CN3CCN(C(c4ccccc4)c4ccccc4)CC3)n2)cc1	-16	-3	-3.6	5278	10	0	5
CC(=O)Nc1ccc(S(=O)(=O)NCC2CCC(C(=O)N3CCCCCC3)CC2)cc1 (configuration not stated)	-15	-2	3.1	2515	10	3	11
O=C(Cn1cnc2ccccc21)NCCCN1CCOCC1	6	11	3.7	24254*	6	4	6
CNC(=O)C(=O)NN=Cc1ccccn1	·	·	1.4	·	3	-5	-1
O=C(NCCC(=O)N1CCN(S(=O)(=O)c2ccc(F)cc2)CC1)Nc1ccccc1	-15	·	-2.2	9124	0	5	5
NNC(=O)c1nc[nH]c1C(=O)Nc1ccccc1	-16	0	1.8	4060	-2	-3	-2
CCN(CC)c1ccc(C(=O)N/N=C(\C)c2cccnc2)cc1	-20	-22	·	4516	·	·	·
O=C(/C=C/C=C/c1ccccc1)CC1(O)C(=O)Nc2ccccc21 (configuration not stated)	-4	9	16	4680	7	17	16
Oc1ccc(C(=Nc2ccccc2)c2ccccc2)c(O)c1	4	·	-0.9	2968	-2	12	8
COc1cc(OC)nc(Oc2ccc(N)c(C)c2)n1	-8	13	3.2	3899	11	15	7

The listing continues:
structure	PrP UTR inh	BJeLR viability	RN4220 kill	Bead autofluor	ugtP null kill	Mtb hypoxia rep	Mtb hypoxia rep growth
CC(C)(C)OC(=O)N1CCC2(CC1)Oc1ccc(Cl)cc1C(=O)C21CC(c2ccc(Cl)cc2)=NO1 (configuration not stated)	-13	-11	-1.4	4483	8	5	2
CCCNS(=O)(=O)c1ccc(OCC(=O)Nc2ccc3c(c2)OCCO3)cc1	-11	-12	-2.1	13140	-5	-1	-4
CCn1cc(C(=O)N2CCn3c(nc4ccccc43)C2)c(=O)c2ccc(C)nc21	-15	-12	1.1	6058	7	6	-2
CCC(CC)NC(=O)COn1nnc2ccc(S(=O)(=O)N3CCOCC3)cc21	-9	-6	-1.5	·	-1	-2	-15
O=C(CCc1nnc(-c2ccc(-c3ccccc3)cc2)o1)NCCc1ccccn1	36	2	4.3	4414	-7	2	7
Cc1[nH]n(-c2ccccc2)c(=O)c1C=NC1CCCCCC1	-35	-4	6.3	4260	9	18	9
COC(=O)CNC(=O)C1CCN(S(=O)(=O)c2cccc3nsnc23)CC1	-10	-1	-2.3	6131	-7	4	11
COc1cccc(CN(C)C(=O)CC23CC4CC(CC(C4)C2)C3)c1OC	-23	2	7.6	3958	7	13	-2
CC(=O)Nc1ccc(N2CCOCC2)c(C(=O)Nc2cccc(C)c2)c1	-31	-1	4.0	10753	-3	5	11
O=C(CN1CCN(c2ccccn2)CC1)Nc1ccc2ccccc2c1	-95	-2	-0.7	2348	3	·	·
CC(C)NC(=O)c1ccc2c(=O)n(CC3CCCO3)c(=S)[nH]c2c1 (configuration not stated)	-21	8	2.0	3118	3	-7	7
CC(C)CC(=O)Nc1ncnc2c1C(=O)CC(C)(C)C2	-34	-1	0.8	2957	2	·	·
CCN1C(=S)NC(c2cccc(F)c2)C(C(=O)OC)=C1C (configuration not stated)	·	·	2.8	·	-5	8	17
O=C(CNC(=O)c1ccc(Br)o1)Nc1cccc(S(=O)(=O)N2CCCC2)c1	-14	0	3.5	4142	-3	-6	-3
O=C1N2CCSC2=NC1(Nc1ccccn1)C(F)(F)F (configuration not stated)	-4	0	2.7	2719	2	·	·
O=C1c2ccccc2C(=O)C12OC(c1ccccc1)C1(C(=O)c3ccccc3C1=O)C2c1cccc([N+](=O)[O-])c1 (configuration not stated)	·	2	9.4	·	-1	14	7
NC1=NC(c2cn(-c3ccccc3)nc2-c2cccs2)n2c(nc3ccccc32)N1 (configuration not stated)	-11	4	-6.4	3050	-20	9	2
O=C(Nc1cccc(Cl)c1)OCc1cncs1	-3	7	·	3435	·	·	·
CCN(CC(=O)Nc1ccc(NC(C)=O)cc1)C(=O)C1CCN(C(=O)c2ccccc2C)CC1	-13	·	-0.5	?	0	-1	7
CCOc1c2ccc(C(=O)NC(C)C3CCCCC3)cc2nn1CC (configuration not stated)	·	·	10.0	·	1	2	6
O=C(N/N=C/c1coc2ccc(Cl)cc2c1=O)c1ccc(O)cc1	-3	3	·	5161	·	·	·
